Bioassay records deposited in PubChem BioAssay by several laboratories.
eIF4H inh: inhibitors of RNA binding by human eIF4H | eIF4H fluorescence polarization binding assay | hit rate 0.94% among 290,000 | AID 2012 | inhibition, % at 35 µM;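 active means 50% or more with normal probe brightness, or confirmed in later tests; inconclusive means above 50% with abnormal brightness, or retests that disagree; inactive means below 50% or failed in later tests; about a fifth of its hits are not listed in these tables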;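 further: calls also rest on retests at 20 µM and on dose response follow-up; 0% = protein and probe with vehicle and 100% = probe without protein; strong numbers were not always called active; many hits fall short of the cut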
PABP polyA inh: PABP-poly(A) binding inhibition; P11940; PABP-poly(A) RNA binding, fluorescence polarization; inhibition, % at 35 µM; hit rate 1% among 290,000; AID 2014;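 active means 50% or more with normal probe brightness, or confirmed in later tests; inconclusive means above 50% with abnormal brightness, or retests that disagree; inactive means below 50% or failed in later tests; about a fifth of its hits are not listed in these tables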;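 further: calls also rest on retests at 20 µM and on dose response follow-up; controls were probe without protein and protein plus probe with vehicle; some compounds called inactive have numbers as strong as hits; many hits fall short of the cut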
Target sequence (P11940 whole entry, looked up): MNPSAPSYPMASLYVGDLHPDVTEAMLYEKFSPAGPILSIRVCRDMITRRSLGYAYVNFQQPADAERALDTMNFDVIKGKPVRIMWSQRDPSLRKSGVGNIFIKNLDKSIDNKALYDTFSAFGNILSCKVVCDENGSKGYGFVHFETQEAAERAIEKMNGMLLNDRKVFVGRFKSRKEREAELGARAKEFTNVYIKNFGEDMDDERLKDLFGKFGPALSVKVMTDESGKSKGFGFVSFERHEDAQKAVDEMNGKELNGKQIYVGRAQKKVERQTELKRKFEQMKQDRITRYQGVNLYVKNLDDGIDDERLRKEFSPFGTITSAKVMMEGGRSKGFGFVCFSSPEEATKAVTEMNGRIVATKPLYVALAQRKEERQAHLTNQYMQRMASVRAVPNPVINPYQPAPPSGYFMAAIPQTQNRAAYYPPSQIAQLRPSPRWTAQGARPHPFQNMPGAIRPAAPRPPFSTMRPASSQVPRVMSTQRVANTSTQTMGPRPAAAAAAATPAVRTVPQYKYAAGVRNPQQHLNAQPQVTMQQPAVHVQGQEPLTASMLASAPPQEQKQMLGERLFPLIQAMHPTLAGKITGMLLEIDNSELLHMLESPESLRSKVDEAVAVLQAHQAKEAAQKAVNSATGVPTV
MT1-MMP act inh: MT1-MMP (human) activation inhibition | GFP/RFP ratio change, % at 20 µM | HT1080 RFP-PRO-GFP cells, GFP/RFP ratio fluorescence, overnight; percent of plate control window, DMSO zero | AID 651647 | hit rate 0.061% among 360,000;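 active means GFP/RFP ratio change of at least 30% with cell ATP level not reduced by more than half and red fluorescence within 50% of control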; further: strong numbers were not always called active
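system = RFP-PRO-GFP reporter HT1080 cells | dosing = 20 µM single dose, 1% DMSO | timing = overnight cell settling, then overnight compound exposure, 37 °C, 5% CO2 | read-out basis = GFP/RFP fluorescence ratio | controls = DMSO and RFP-L50D-GFP cell wells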
Yeast UUG start: alters start codon recognition fidelity in yeast | S. cerevisiae UUG-firefly luciferase reporter, luminescence/redox ratio | activity score, % at 18.7 µM | hit rate 0.13% among 350,000 | AID 602363;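 active means replicate mean at a twofold rise or more, about +100% in these data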;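 further: firefly luciferase made from a UUG start codon reports start codon fidelity; reporter light over untreated wells divided by growth signal over untreated wells; some hits fall short of that in this replicate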
Rce1 inh: inhibitors of yeast Ras-converting enzyme; Q03530; yeast membranes, quenched prenylated peptide cleavage fluorescence; calls only; hit rate 0.27% among 290,000; AID 2563;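 active means fall in fluorescence gain of 50% or more versus controls, with final raw signal at or below 3038400; inconclusive means same 50% fall but final raw signal above 3038400; inactive means fall in fluorescence gain under 50%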;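 further: plate controls were neutral control wells for no effect and wells lacking membranes for full effect; tested at 10 µM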
HIV Env fusion: HIV envelope-mediated fusion inhibition. HeLa-JRFL Env/CEM21 cell fusion, luciferase. inhibition, % at 12.3 µM. hit rate 1.1% among 360,000. AID 651610;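 active means mean replicate inhibition score of at least 50 and every replicate individually at or above 50; inconclusive means only one of the two criteria met; inactive means mean below 50 and not all replicates reaching 50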;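 further: 0% = plate neutral controls and 100% = maraviroc near 300 nM; one replicate is shown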
CSC inhib: blocks cancer stem cells. inhibition, % at 7.5 µM. hit rate 1.1% among 300,000. cancer stem cell-like cells viability, luminescence. AID 2717;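 active means mean at 75% or more and at least half the replicates too; inconclusive means mean and replicates disagree; tested in HMLE shEcad cells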;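 further: 0% = median of negative and 100% = median of positive control wells; the first replicate is given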
eIF4H inh retest: further read-out of eIF4H inh, marked with its call; inhibition, %; compound at 20 µM; confirmation average;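 mean of two retest wells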
PABP polyA inh retest: also measured in PABP polyA inh; calls as there; inhibition, %; compound at 20 µM; confirmation repeats;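 mean of two retest wells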
MT1-MMP act inh RFP: second read-out of MT1-MMP act inh, no call of its own (marks repeat the call); RFP signal change, %; measured here: RFP expression control read;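 0 = vehicle wells; hits needed this value within 50% of zero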
* = called active by the depositor; i = inactive; ? = inconclusive; . = no result given.

SMILES	eIF4H inh	PABP polyA inh	MT1-MMP act inh	MT1-MMP act inh RFP	Yeast UUG start	Rce1 inh	HIV Env fusion	CSC inhib	others
CC(C)OC(=O)c1c2c(n3ccccc13)C(=O)c1ccccc1C2=O	?	7.1	-67.6	25.9	.	i	-22.3	?
O=C(CN1C(=O)NC2(CCCCC2)C1=O)Nc1nc2c(F)cc(F)cc2s1	.	.	-2.3	2.1	-20.0	i	-10.5	0.9
CCN(CC)C(=O)c1sc(NC(=O)Cc2ccc(OC)cc2)c(C#N)c1C	6.0	3.5	-0.9	-2.7	-3.8	i	.	-0.3
NC(=O)c1c(NC(=O)CSc2nnc(-c3ccco3)n2-c2ccccc2)sc2c1CCC2	86.7*	85.8*	-6.1	-3.1	-7.7	i	-11.1	.
CN1CCN(S(=O)(=O)c2ccc(NC(=O)c3csc4ccccc34)cc2)CC1	-0.7	-1.7	-3.9	-2.9	12.5	i	.	-8.3
Cc1ccc(Nc2ccc(C(=O)O)cc2N)cc1	-5.0	3.8	.	.	.	?	-169.8	-3.0
CCc1noc(C)c1C(=O)Nc1cc(S(=O)(=O)N(CC)CC)ccc1N1CCOCC1	.	.	-3.1	-0.3	.	i	16.5	3.6
COc1ccc(CCNC(=O)CNS(=O)(=O)c2ccc(N(C)C)c([N+](=O)[O-])c2)cc1OC	6.3	-4.1	-1.1	1.8	-9.4	i	-11.1	4.3
COC(=O)/C=c1/s/c(=C(\C#N)C(=O)NCc2ccco2)n(-c2ccccc2)c1=O	9.9	2.7	8.9	23.9	-3.9	i	-22.0	-4.1
CC(=O)Nc1ccccc1C(=O)N1CCN(Cc2ccc3c(c2)OCO3)CC1	-11.8	-2.9	-1.8	3.5	-7.7	i	-5.5	-10.1
CC1(Oc2ccc(CC#N)cc2)CCN(Cc2ccccc2OC(F)F)C1 (configuration not stated)	.	.	-2.9	-0.9	-3.3	.	-10.2	.
COc1ccc2ccccc2c1CN1CCN(Cc2ccccc2)CC1	-5.6	3.0	4.8	1.1	-5.1	i	.	-10.4
CCn1c(CNc2ccc(C(=O)O)cc2)nc2ccccc21	-5.7	-15.1	4.3	5.7	-18.2	i	.	-15.5
CC1(C(=O)Nc2nc3ccc(S(C)(=O)=O)cc3s2)CC1(Cl)Cl (configuration not stated)	.	.	-3.6	-3.5	.	i	9.5	-6.3
c1ccc(-c2nc(-c3ccccn3)nc(-c3ccccn3)n2)nc1	4.3	-14.9	7.3	4.8	-13.7	i	4.9	-7.5
CC(=O)Nc1cc(-c2cccc(C(=O)NCCN(C)C)c2)cn2c(-c3cccc(C(F)(F)F)c3)cnc12	.	.	-9.7	-13.5	1.7	.	32.3	.
Cc1nn(-c2ccccc2)c2c1C1(C(=O)N(C(C)C)c3ccccc31)C(C#N)=C(N)O2 (configuration not stated)	-8.6	0.2	2.5	-2.9	5.0	i	.	6.5
Cc1c(C(c2ccc(F)cc2)c2c(C)n(C)n(-c3ccccc3)c2=O)c(=O)n(-c2ccccc2)n1C	-10.3	5.6	-1.3	-0.7	4.0	i	-13.9	-12.3
O=C(Cn1cccc1)N1CCN(c2ccc(F)cc2)CC1	2.2	6.3	3.3	1.1	-9.9	i	-51.8	-13.4
CC(C)c1ncc(C(O)c2ccccc2)n1C (configuration not stated)	7.7	6.8	3.1	-0.2	.	.	2.5	1.3
O=C(CN1C(=O)C2C3C=CC(C4CC34)C2C1=O)OCC(=O)c1ccccc1 (configuration not stated)	-4.0	1.5	-2.1	-2.2	.	i	16.2	5.0
Cc1ccccc1C(=O)Oc1ccccc1N1C(=O)C2CC=CCC2C1=O (configuration not stated)	3.8	-1.0	4.7	-0.7	.	i	18.1	7.7
Cc1ccc(C)c(NCCCCC(=O)O)c1	.	.	4.7	6.9	-5.7	.	7.0	.
O=C(NC(=O)N1CCN(c2ccccc2F)CC1)c1ccccc1	-2.1	-6.8	0.8	1.9	-35.1	i	.	9.4
COc1ccc(NC(=O)c2cccc3ccccc23)cc1OC	.	.	4.7	5.4	9.3	.	8.8	.
O=C(N/N=C/c1ccc(O)c(O)c1)NC12CC3CC(CC(C3)C1)C2	1.9	5.2	8.7	-3.0	.	i	15.7	29.4
CC(=O)N/C(=C\c1ccccc1)C(=O)OCC(=O)N(C)C1CCCCC1	0.6	8.6	5.8	7.9	.	i	15.7	-3.1
CCC1(c2ccccc2)NC(=O)N(CC(=O)Nc2ccc(N3CCCC3)cc2C)C1=O (configuration not stated)	.	.	0.8	1.9	.	i	1.4	-7.4
Fc1ccccc1/C=N/Nc1cc(N2CCCCC2)ncn1	.	.	3.9	-9.8	-21.1	i	-243.4	-5.1
CCCCC1SC(N)=NC1=O (configuration not stated)	.	.	0.1	2.7	-15.8	.	4.1	.
COc1cc(OC)c(OC)cc1CN1CCN(Cc2ccco2)CC1	9.7	9.3	-0.9	-0.8	-16.4	i	-12.7	-8.7
Cc1cccc(C(=O)NNC2=CC(=O)CC(C)(C)C2)c1O	2.0	8.2	-0.4	5.9	.	i	-7.3	-2.8
COc1ccccc1O	-8.4	4.6	6.1	3.7	-16.1	i	.	-9.6
COc1cccc(NC(=O)[C@H](CC(C)C)NC(=O)[C@@H]2Cc3ccccc3CN2)c1	-2.9	-0.7	4.2	5.8	1.0	i	-1.9	-6.4
Cc1ccc2nc(N/C(=N/S(=O)(=O)c3ccc(F)cc3)c3ccccc3)sc2c1	2.4	3.5	6.5	1.0	-9.2	i	-17.2	20.7
CC1(C(=O)NCCCN2CCOCC2)Oc2cccnc2NC1=O (configuration not stated)	-1.1	-4.4	-1.4	2.5	-19.3	i	6.2	-5.3
CC1CCc2[nH]c3ccc(C(=O)N(C)CC(=O)Nc4cccc(F)c4)cc3c2C1 (configuration not stated)	.	.	2.3	-3.1	1.5	i	7.3	-4.2
COc1cc2c(cc1OC)CN(C(=O)c1ccco1)CC2	2.9	4.4	2.2	-4.8	.	i	-22.3	4.9
O=C(O)CCCN1C(=O)/C(=C/c2cn(-c3ccccc3)nc2-c2cccs2)SC1=S	56.9	0.4	5.7	-1.1	.	.	-61.1	.	eIF4H inh retest=-11.1;PABP polyA inh retest=8.3
CCN1CCN(c2cc(C)c3cc(NC(=O)c4ccncc4)ccc3n2)CC1	-1.7	-3.9	-2.1	0.2	-11.3	i	-13.5	3.3
COc1ccc(C(C)=O)cc1COc1ccc([N+](=O)[O-])c(C)c1	2.1	-3.1	1.6	1.9	.	i	-14.9	17.0
COc1ccc(NS(=O)(=O)c2ccc(N3CCCC3)c(NC(=S)Nc3ccc(SC(F)F)cc3)c2)cc1	-12.3	4.4	-3.0	-18.2	-10.8	i	.	-3.0
CCc1ccc(S(=O)(=O)c2ccc(-n3nc(C)cc3N)cc2)cc1	-8.4	-0.1	3.6	-2.3	.	i	5.0	10.7
O=C(CSc1nnc(CN2CCOCC2)n1-c1ccc(Cl)cc1)N1CCc2ccccc21	.	.	-1.9	-2.7	.	i	.	-25.2
C=CCn1c(SCC(C)=O)nnc1-c1cc(-c2ccccc2)sc1N	-10.5	-0.8	-3.9	-4.3	-14.0	i	-66.5	-7.2
COC(=O)c1cc(S(=O)(=O)Nc2cc(OC)cc(OC)c2)c[nH]1	-11.2	3.6	1.6	-5.7	1.8	i	25.1	-7.2
CCc1ccc2oc(=O)cc(CN3CCCCC3)c2c1	9.8	11.0	-2.0	5.2	-14.6	i	-1.4	-9.6
Cc1noc(C)c1C(=O)N1CCc2ccccc21	-7.9	0.5	4.3	1.0	-7.0	i	.	-11.5
Cc1ccc(C)c(OCC(=O)Nc2nc3ccc([N+](=O)[O-])cc3s2)c1	-7.6	-1.4	1.6	-3.0	-12.4	i	-6.1	12.2
COc1ccccc1NC(=O)Cn1nnc(C(=O)NCc2cccs2)c1N	-0.9	93.8	2.9	-6.7	-22.9	i	-408.2	54.0	eIF4H inh retest=-2.3;PABP polyA inh retest=10.4
COc1nccnc1NS(=O)(=O)c1ccc(NC(=O)c2cccc(C)c2)cc1	-12.9	0.0	0.0	1.6	.	i	7.3	-14.9
O=C(CC(=O)c1ccccc1)Nc1ccc([N+](=O)[O-])cc1	.	.	4.5	2.5	-4.5	.	-41.7	.
O=C(Cc1cccs1)N1CCN(S(=O)(=O)c2ccc(Br)cc2)CC1	1.1	-8.4	-1.2	-2.6	-4.8	i	2.3	19.6
CCCCC1(Cc2ccc(OC)c([N+](=O)[O-])c2)C(=O)N(c2ccccc2)N(c2ccccc2)C1=O	5.6	6.2	8.9	5.9	-12.1	i	118.4*	19.0
CCCCCCNS(=O)(=O)c1ccccc1Br	-5.8	-13.3	12.1	3.1	-12.9	i	-15.1	4.8
O=C(/C=C/c1ccc(Cl)c(Cl)c1)NCCCn1ccnc1	-0.3	-0.8	3.1	-0.2	-6.2	i	9.6	33.1
C[C@@H](NC(=O)CN1C(=O)c2ccccc2S1(=O)=O)c1ccccc1	-2.8	-5.9	0.7	3.5	-14.4	i	-4.3	4.4
O=C(CSc1nc2ccc(NC(=O)C3CCCCC3)cc2s1)NCC1CCCO1 (configuration not stated)	-1.6	-3.5	2.9	0.7	-11.1	i	-2.9	-4.8
Cc1ccc(N=Cc2c(O)c3ccccc3oc2=O)cc1F	-12.9	-21.1	-9.2	-2.3	-24.9	i	-8.3	-1.8
S=C(NCCCc1ccccc1)NCc1ccccc1	-9.8	41.6	-0.9	1.1	-29.5	i	-337.6	12.7

Already shown: an excerpt of the list.
SMILES	eIF4H inh	PABP polyA inh	MT1-MMP act inh	MT1-MMP act inh RFP	Yeast UUG start	Rce1 inh	HIV Env fusion	CSC inhib	others
Cc1ccc(N=Cc2c(O)c3ccccc3oc2=O)cc1F	-12.9	-21.1	-9.2	-2.3	-24.9	i	-8.3	-1.8
S=C(NCCCc1ccccc1)NCc1ccccc1	-9.8	41.6	-0.9	1.1	-29.5	i	-337.6	12.7

(further entries)
SMILES	eIF4H inh	PABP polyA inh	MT1-MMP act inh	MT1-MMP act inh RFP	Yeast UUG start	Rce1 inh	HIV Env fusion	CSC inhib	others
COc1cccc(NC(=O)N2C3CCCC2CC(NC(=O)C(C)(C)C)C3)c1 (configuration not stated)	-11.0	-5.4	0.3	-2.5	-3.5	i	1.1	-23.2
Cc1ccc2nc(Cl)nc(-c3ccccc3)c2c1	-2.6	3.9	-5.6	-8.9	-11.6	i	16.4	11.1
CCS(=O)(=O)N1Cc2ccccc2CC1C(=O)Nc1ccc(F)c(F)c1 (configuration not stated)	0.9	-4.3	2.9	4.2	-9.6	.	-3.7	5.1
O=C(NC1CCCC1)C(c1cccs1)N(CC1CCCO1)C(=O)Cc1cccs1 (configuration not stated)	0.7	-0.5	1.9	2.1	-2.1	i	.	-3.2
COC(=O)c1cc2occc2n1CC(=O)Nc1cc(OC)cc(OC)c1	-3.1	-2.4	0.1	-1.7	.	i	-12.4	1.7
COc1ccc(CNC(=O)COC(=O)c2ccc(Br)cc2)cc1	0.9	21.1	0.1	-3.3	-16.6	i	9.9	-7.2
CCOc1cccc(=O)c2c(C)oc(C)c12	-0.6	20.8	-220.3	5.4	-1.0	i	.	-12.4
O=C(CCN1C(=O)c2ccccc2C1=O)Nc1cccc(S(=O)(=O)N2CCCCC2)c1	-8.6	-14.9	4.1	-3.2	-21.0	i	-79.6	1.6
Cn1c(Cn2cnc3ccccc32)nc2ccccc21	-4.8	-2.2	-3.8	-2.1	-15.5	i	.	0.5
